miR-21 reporter: miR-21 reporter, rising signal; HeLa miR-21 FLuc reporter, luciferase, 48 h; Potency, µM (highest dose often 38.3 µM), for the others: at the top dose reporter change, positive = more light; 340,000 tested, under 10 active; active = well fitted rising curve with a large enough effect; inconclusive = small, poorly fitted or top-dose-only effect; inactive = no such curve, though single readings can be large or run the other way;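 further: % of control where 0% means no effect; miR-21 action dims this reporter so a rising signal means less miR-21 action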
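HeLa miR-21-FLuc reporter line, endogenous miR-21; 2000 cells/well in DMEM/10% FBS; compound titration up to ~40uM final, 48 h, 37 degree Celsius; luciferase detection reagent, 15 min lysis, CCD luminescence.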
Active calls of the source: *; ? = inconclusive. These rows are one share of the data; count on the stated rates, not on these rows.

miR-21 reporter	SMILES
0%	Cc1ccc(C(=O)NCC(=O)OCc2cc(=O)n3nc(C4CCCCC4)sc3n2)cc1
5%	COc1ccc(Cl)cc1NC(=O)CCS(=O)(=O)c1cccc2nonc12
0%	CCOc1ccc(-c2nn(CC(=O)NC3CCCCC3)c3c2cnc2ccc(C)cc23)cc1
0%	Cc1c(CNC2CCCCC2)c(C(=O)O)c(C)n1Cc1ccc(F)cc1
28%	CCc1ccccc1Nc1cc(C(=O)NCCCN(C)C2CCCCC2)c2ccccc2n1
-16%	COc1cccc(-c2noc(-c3cc4ccccc4oc3=O)n2)c1OC
?	CC(C)OCCCNC(=O)c1ccc(-n2c(-c3ccccc3)cc3c2CCCC3)cc1
0%	CC1CCN(C(=O)c2cnn(-c3cccc(Cl)c3)c2C2CCN(C(=O)OC(C)(C)C)CC2)CC1
18%	O=C(NCc1ccc(F)cc1)C1CCN(S(=O)(=O)c2ccc3c(c2)CCCN3C(=O)C2CCC2)CC1
-2%	COc1ccc(S(=O)(=O)NCc2cccn2Cc2cccc(C)c2)cc1OC
7%	CC(=O)c1ccc(N2C(=O)N(CC(=O)c3ccc(F)cc3)c3ccccc3S2(=O)=O)cc1
0%	O=C(c1ccc2c(c1)CCCC2)N1CCN(c2nc3c(F)cccc3s2)CC1
3%	Cc1ccc(CN2C(=O)SC(Nc3ccccc3)C2=O)cc1 (stereo unspecified)
-2%	CCOc1ccc(C2C(=O)N(C3CCCCC3)CC(=O)N2CCc2ccccc2)cc1OC (stereo unspecified)
-5%	Cc1nc(N2CCCC2)c2c(C(=O)Nc3cccc(Cl)c3)c(C)oc2n1
-15%	CCOC(=O)c1cc(S(=O)(=O)Nc2ccc(Br)c(C)c2)[nH]n1
1%	COc1cccc(N2CCN(C(=O)Cn3c(-c4cccs4)cc4ccccc43)CC2)c1
-3%	Cc1ccccc1C(=O)Nc1ccc2nc(SCC(=O)N3CCc4ccccc43)sc2c1
4%	CCOc1ccccc1CNC(=O)CN1C(=O)CCCc2ccccc21
-1%	CCC(C)n1c(=N)c(C(=O)NCc2ccco2)cc2c(=O)n3cc(C)ccc3nc21 (stereo unspecified)
0%	Cc1ccc(NC(=O)Cn2cnc3nc4c(cc3c2=O)CCCC4)cc1Cl
-24%	Cn1c(=O)c2c(nc(N3CCOCC3)n2Cc2cccc(Br)c2)n(C)c1=O
-6%	O=C(c1cccn1-c1nnc(N2CCCCC2)s1)N1CCN(c2ccccc2)CC1
1%	COc1cc(-c2ccno2)ccc1S(=O)(=O)N1CCN(c2ccccc2F)CC1
0%	O=C(NCCc1csc(-c2ccc(C(F)(F)F)cc2)n1)C(=O)Nc1ccc(F)c(Cl)c1
13%	Cc1ccc(-c2nnc(Nc3ccc(S(N)(=O)=O)cc3)c3ccccc23)cc1S(=O)(=O)N1CCOCC1
-6%	CCc1ccc(NC(=O)Cn2nc(C(F)(F)F)c3c2CCCC3)cc1
-4%	COc1ccc2[nH]c(=O)c(CN(C(=O)c3cccc(Cl)c3)c3ccccc3C)cc2c1
-38%	COc1ccc(-n2ncc3c(NCCC4=CCCCC4)ncnc32)cc1
-11%	Fc1ccc(Nc2ncnc3c2nc2n3CCCCC2)c(F)c1
?	Cc1ccccc1-n1c(SCC(=O)c2ccccc2)nnc1-c1ccc(F)cc1
1%	CCc1ccc(NC(=O)Cn2c(=O)n(CCC(=O)NCc3ccc4c(c3)OCO4)c(=O)c3ccccc32)cc1
-11%	CC(C)(C)NC(=O)Cn1cc(S(=O)(=O)Cc2ccccc2Cl)c2ccccc21
-1%	COc1ccccc1-n1nc(-c2ccccc2)c2cnc3c(F)cc(F)cc3c21
-24%	O=C(Cn1nnc(-c2ccccc2Cl)n1)Nc1ccc(Br)cc1
16%	COc1ccc(C(=O)Nc2ccc(-n3nncc3-c3ccccc3)cc2)cc1OC
?	COc1cc(OC)c(-c2cc(C(=O)NCc3ccc(F)cc3)c3c(-c4ccccc4)[nH]nc3n2)cc1OC
-2%	O=C1Cc2cc(S(=O)(=O)N3CCCCC3)cc3c2N1CCC3
0%	CCOc1ccc(NC(=O)CC2C(=O)N(c3ccccc3)C(=O)N2Cc2ccc3c(c2)OCO3)cc1 (stereo unspecified)
15%	CCc1ccc(NC(=O)CSc2nc3c(oc4ccccc43)c(=O)n2-c2cccc(C)c2)cc1
-2%	CC(=O)c1cc(C(=O)Nc2cc(C)cc(C)c2)c2ccccn12
-6%	COc1ccc(-c2c(C#N)c(SCC(=O)Nc3ccccc3C)nc(C)c2C(=O)Nc2ccc(Cl)cc2)cc1
3%	CCOc1ccc(NC(=O)CSc2nc3ccccc3c(=O)n2CCC(=O)NC2CCCCC2)cc1
-3%	Cn1c(Oc2cccc(Cl)c2)nc2c1c(=O)n(Cc1ccccc1Cl)c(=O)n2C
-41%	N#Cc1nc(COc2cccc(Cl)c2)oc1NCCc1ccccc1
-5%	Cc1cc(C)c2sc(NC(=O)c3ccc(S(=O)(=O)N4CCOCC4)cc3)nc2c1
3%	COc1ccc2c(c1)NC(c1ccc(OCC(C)C)cc1)=NC(c1ccncc1)=N2
4%	CCC(=O)N1CCc2cc(Br)cc(S(=O)(=O)CCC(=O)NCc3ccc(F)cc3)c21
-18%	Cc1ccc(C(=O)CSc2nc(C)cc(C)c2C(=O)Nc2cccc(C)c2)cc1
0%	CCOc1ccc(CCNC(=O)Cn2nnc(-c3ccc(C(F)(F)F)cc3)n2)cc1OCC

Next part
miR-21 reporter	SMILES
-4%	CCOc1ccccc1NC(=O)CCS(=O)(=O)c1ccc2c(c1)oc(=O)n2C
-2%	Cc1ccc(CNC(=O)CCNS(=O)(=O)c2ccc3c(c2)oc(=O)n3C)cc1
3%	CCN(CC)c1cc(C)c2cc(NC(=O)c3cc(OC)cc(OC)c3)ccc2n1
?	CCSc1ncc(Cl)c(C(=O)Nc2ccc(S(=O)(=O)N3CCCCC3CC)cc2)n1 (stereo unspecified)
-5%	CCn1cc(S(=O)(=O)c2ccc(C)cc2C)c(=O)c2cc(F)c(N3CCCC3)cc21
0%	Cn1nc(C(=O)Nc2ccccc2C#N)c2c1-c1ccccc1SC2
27%	COc1ccccc1Nc1c2c(nc3ccc(NC(=O)c4ccc(OC)c(OC)c4)cc13)CCCC2
12%	O=C1CCCc2cc(S(=O)(=O)NCC3CCC(C(=O)Nc4ccccc4F)CC3)ccc2N1 (stereo unspecified)
2%	CCn1c(=O)c2cc(C(=O)NCCc3ccc(Cl)cc3)sc2c2ccccc21
25%	Cc1c(C(=O)N2CCCC2)oc2c1-c1nn(CC(=O)NC(C)c3ccccc3)cc1CC2 (stereo unspecified)
-11%	COc1ccccc1NC(=O)Cn1c(=O)n(CCCCCC(=O)NCc2ccccc2)c(=O)c2sccc21
2%	CCOC(=O)C(=O)Nc1nnc2n1CCS2
-4%	Cc1cccc(NC(=O)c2sc(-n3nc(C)c(CCC(C)C)c3C)nc2C)c1C
4%	Cc1ccc(NS(=O)(=O)c2ccc3[nH]c4c(c3c2)CCCCCC4)cc1C
21%	CCc1ccc(-n2c(=O)c3cccnc3n2CC(=O)N(CC)c2cccc(C)c2)cc1
-13%	Cc1ccc(C2=Nc3ccccc3N(CC(=O)NCc3ccccc3Cl)C(=O)C2)cc1C
-9%	Cc1cccc(OCC(=O)Nc2ccc(-c3nc4ccccc4o3)cc2)c1C
-31%	Cc1nc2cccnc2n1C1CCN(C(=O)Nc2ccc(Cl)cc2)CC1
-6%	CCCCN(CCCC)CCCNC(=O)c1cc(-c2ccc(Cl)s2)nc2ccccc12
8%	Cc1ccc(CN(Cc2ccco2)C(=O)COc2cc(C)c(Cl)c(C)c2)cc1
-6%	Cc1ccc(CNC(=O)CCc2nc3cccnc3n2Cc2ccccc2)cc1
-2%	CCN1CCN(Cc2c(O)ccc3c(=O)c(Oc4ccccc4Cl)c(C(F)(F)F)oc23)CC1
-10%	Cc1ccc(S(=O)(=O)c2cn(CC(=O)Nc3ccc4c(c3)OCO4)c3ccccc3c2=O)cc1C
22%	CC(C)C(=O)Nc1ccc2nc(SCC(=O)N3CCc4ccccc43)sc2c1
?	COc1ccc(Nc2c3c(nc4ccc(NC(=O)/C=C/c5cc(OC)c(OC)c(OC)c5)cc24)CCCC3)cc1OC
2%	COc1cc(OC)cc(-c2nc3n(n2)C(c2ccccc2)C(C(N)=O)=C(C)N3)c1 (stereo unspecified)
5%	Cc1ccc(C)c(Cn2c(=O)cc(C)c3c(C)nn(-c4cccc(F)c4)c32)c1
1%	COc1ccccc1-n1c(=O)c2c3c(sc2n(Cc2ccccc2F)c1=O)CN(C(C)=O)CC3
0%	O=C(Nc1cccc(C(F)(F)F)c1)C1CCCN(S(=O)(=O)c2cccc3nonc23)C1 (stereo unspecified)
-1%	CCOC(=O)c1c(S(=O)(=O)N2CCCC(C(=O)NCc3ccccc3OC)C2)c(C)n(C)c1C (stereo unspecified)
-11%	O=C(NCC(c1cccnc1)N1CCc2ccccc2C1)C(=O)Nc1ccc(F)cc1F (stereo unspecified)
12%	CCS(=O)(=O)Nc1ccc(-c2cn3c(C)csc3n2)cc1
-7%	CC(C)c1ccc2occ(CC(=O)Nc3ccccc3Cl)c2c1
-7%	CCCCN(C)CCCNC(=O)Cn1ncc2c3ccccc3n(Cc3cc(C)ccc3C)c2c1=O
23%	CCCc1oc2ccc(NS(=O)(=O)c3ccc(OCC)cc3)cc2c1C(=O)OCC
-5%	COc1ccccc1NC(=O)c1c(NC(=O)c2ccco2)sc2c1CCC(C(C)(C)C)C2 (stereo unspecified)
-5%	Cc1ccc(Cl)cc1N1CCN(C(=O)c2cn(C)c3ccc(S(=O)(=O)N4CCCC4)cc3c2=O)CC1
4%	Cc1ccc(N2CCN(S(=O)(=O)c3cc(Br)cc4c3N(C(=O)C3CC3)CC4)CC2C)cc1 (stereo unspecified)
-7%	Cc1ccc(/C=C/c2nc3ccccc3n2S(=O)(=O)c2ccc(Br)cc2)cc1
0%	CN(C)S(=O)(=O)N(CC(=O)NCCSCc1cccc(Cl)c1)c1ccccc1
-5%	COc1ccccc1NC(=O)C(=O)NCC(c1ccc2c(c1)OCO2)N1CCOCC1 (stereo unspecified)
6%	CCCCCn1c(=O)[nH]c2cc(C(=O)NCCN(C)CCCC)ccc2c1=O
21%	CCc1ccccc1NC(=O)COCc1cc(-c2ccco2)on1
16%	CCCCN(CC)C(=O)c1c[nH]c2ccc(S(=O)(=O)N(C)c3ccc(Cl)cc3)cc2c1=O
-4%	Cc1cc(C)n(CCc2nc3c4ccccc4nc(N4CCN(c5ccc(F)cc5)CC4)n3n2)n1
23%	CCc1ccc(NC(=O)c2ccc(F)c(S(=O)(=O)N3CCc4ccccc4C3)c2)cc1
7%	CC(C)CCNC(=O)C1CCN(c2nc3ccc(Cl)cc3[nH]2)CC1
0%	Clc1cccc(-n2ncc3c(N4CCN(Cc5ccccc5)CC4)ncnc32)c1
-8%	COc1cccc(OCCCn2c(-c3ccc(Cl)cc3)nc3ccccc3c2=O)c1
21%	COc1ccc(C2NC(=O)N(C)C3=C2C(=O)N(c2ccc(Br)cc2)C3)cc1 (stereo unspecified)

Random excerpt: five records from the list.
miR-21 reporter	SMILES
-7%	Cc1ccc(/C=C/c2nc3ccccc3n2S(=O)(=O)c2ccc(Br)cc2)cc1
-6%	CCCCN(CCCC)CCCNC(=O)c1cc(-c2ccc(Cl)s2)nc2ccccc12
-2%	O=C1Cc2cc(S(=O)(=O)N3CCCCC3)cc3c2N1CCC3
4%	Cc1ccc(NS(=O)(=O)c2ccc3[nH]c4c(c3c2)CCCCCC4)cc1C
1%	COc1cccc(N2CCN(C(=O)Cn3c(-c4cccs4)cc4ccccc43)CC2)c1

Some of these compounds in order of molar mass, falling.
miR-21 reporter	SMILES
4%	Cc1ccc(N2CCN(S(=O)(=O)c3cc(Br)cc4c3N(C(=O)C3CC3)CC4)CC2C)cc1 (stereo unspecified)
-1%	CCOC(=O)c1c(S(=O)(=O)N2CCCC(C(=O)NCc3ccccc3OC)C2)c(C)n(C)c1C (stereo unspecified)
-11%	O=C(NCC(c1cccnc1)N1CCc2ccccc2C1)C(=O)Nc1ccc(F)cc1F (stereo unspecified)
2%	COc1cc(OC)cc(-c2nc3n(n2)C(c2ccccc2)C(C(N)=O)=C(C)N3)c1 (stereo unspecified)
5%	Cc1ccc(C)c(Cn2c(=O)cc(C)c3c(C)nn(-c4cccc(F)c4)c32)c1

(cont.)
miR-21 reporter	SMILES
21%	CCc1nnc2c3ccccc3nc(N3CCN(c4cc(C)ccc4C)CC3)n12
13%	Cc1ccn2c(Nc3c(C)cccc3C)c(-c3ccc(Cl)s3)nc2c1
6%	Cc1ccc(NC(=O)CN2CCCN(Cc3cc(C)ccc3C)S2(=O)=O)c(Cl)c1
-2%	COCCNC(=O)c1nn(-c2ccc(Cl)cc2)nc1CO
-20%	CN1CCN(Cc2c(O)ccc3cc(-c4ccc(Cl)cc4)c(=O)oc23)CC1
-1%	CCOC(=O)c1ccc(NC(=O)c2cnc(N3CCCC3)nc2C)cc1
-5%	CCOc1c(Br)cc(C2C=C(C(=O)O)Nc3ncnn32)cc1OC (stereo unspecified)
-23%	COc1ccccc1-c1cc(NC(=O)COc2ccc(C)c(C)c2)n(-c2ccccc2)n1
1%	CC1CCN(S(=O)(=O)c2ccc3nc(N4CCN(c5ccccc5F)CC4)ccc3c2)CC1
0%	COc1ccc(S(=O)(=O)N(CC(=O)NCCSc2ccccc2)c2ccc(Cl)cc2)cc1
-8%	Cc1cccc(N2CCN(C(=O)c3oc(=O)c4ccccc4c3-c3ccccc3)CC2)c1C
-6%	CCN1C(=O)c2ccccc2Sc2ccc(NC(=O)Nc3ccc(C(C)=O)cc3)cc21
-9%	CCOc1ccc(CNC(=O)CSc2c3c(nc4ccc(Cl)cc24)CCCC3)cc1
-7%	CCOC(=O)c1ccc(-c2ccc(/C=C(\C#N)C(=O)Nc3cccc(C)c3)o2)cc1
10%	COc1ccc(Br)cc1CNC(=O)C1CCCCN1S(=O)(=O)c1ccc(F)cc1 (stereo unspecified)
